PKD1 kinase inh – inhibitors of human PKD1 kinase, biochemical, fluorescence polarization | AID 797, 2007 | inhibition, %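 (about 10 µM by stock and volumes)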 | PKD1 kinase fluorescence polarization assay | 200,000 tested, 0.056% active;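 active = inhibition of 50% or more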;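 also: controls were vehicle for no effect and a reference inhibitor for full effect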
Target sequence (Q15139 whole entry, looked up): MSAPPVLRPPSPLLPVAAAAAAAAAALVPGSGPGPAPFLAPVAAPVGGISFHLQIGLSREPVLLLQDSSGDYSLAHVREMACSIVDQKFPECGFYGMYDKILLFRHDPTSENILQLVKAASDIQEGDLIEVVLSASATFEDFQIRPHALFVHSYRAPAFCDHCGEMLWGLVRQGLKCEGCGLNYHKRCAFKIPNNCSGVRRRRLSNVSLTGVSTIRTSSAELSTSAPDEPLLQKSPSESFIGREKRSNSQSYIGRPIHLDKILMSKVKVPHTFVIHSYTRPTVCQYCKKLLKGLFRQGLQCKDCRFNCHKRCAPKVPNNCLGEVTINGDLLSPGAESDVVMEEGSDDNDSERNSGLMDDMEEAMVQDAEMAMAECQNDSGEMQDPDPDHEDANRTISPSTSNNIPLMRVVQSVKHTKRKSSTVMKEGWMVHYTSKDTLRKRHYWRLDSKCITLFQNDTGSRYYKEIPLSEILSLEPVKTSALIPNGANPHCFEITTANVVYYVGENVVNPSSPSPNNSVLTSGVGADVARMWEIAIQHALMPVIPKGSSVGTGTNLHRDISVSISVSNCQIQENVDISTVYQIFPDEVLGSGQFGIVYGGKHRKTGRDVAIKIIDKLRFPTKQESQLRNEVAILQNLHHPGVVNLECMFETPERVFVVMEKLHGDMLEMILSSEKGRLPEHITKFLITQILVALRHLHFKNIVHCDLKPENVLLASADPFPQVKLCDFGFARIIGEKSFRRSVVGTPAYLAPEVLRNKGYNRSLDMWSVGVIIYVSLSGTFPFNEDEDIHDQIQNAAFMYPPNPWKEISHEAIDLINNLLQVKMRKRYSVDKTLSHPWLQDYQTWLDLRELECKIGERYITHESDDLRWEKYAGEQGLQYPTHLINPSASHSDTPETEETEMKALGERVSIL
RGS16-Gao – modulators of RGS16 binding to Galphao, primary screen, biochemical, human proteins, multiplexed bead flow cytometry; bead-based flow cytometry RGS16-Galphao binding, fluorescence; actives lie on both sides; Regulator of G-protein signaling 16 (Homo sapiens) + Guanine nucleotide-binding protein …; AID 1441, 2008; binding response (% of control), % at 10 µM; 220,000 tested, 0.38% active;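 active = below 25% or above 175%, edge rows of some plates excepted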;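 also: Galphao activated by GDP with aluminum fluoride before binding; 100% = wells without compound and 0% = beads without RGS; some results beyond the cut were filed as inactive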
HSV augment – enhancers of HSV replication in host cells, fold increase, host cell viability | HSV replication augmentation in cells | maximum fold increase | 220,000 tested, 0.005% active | AID 1956, 2009;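 active = peak rise of 1.5-fold or more in the series; tested in PC3 cells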;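 also: first round at 10 µM; read as green reporter fluorescence; hits show the peak of a series up to 25 µM; 1 = signal of infected wells without compound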
INS promoter inh – inhibitors of insulin promoter-driven GFP, primary screen, imaging, TRM-6 cells (human fetal islet line), eGFP reporter, cell count; reporter expression induced with tamoxifen; inhibition, % at 2 µM; 130,000 tested, 0.9% active;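 active = inhibition above the mean plus 3 SD, with well images judged a real hit on visual review, cut at about 60% in these data, passing the limit was not always enough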
GALR2 agonist – GALR2 receptor agonists, primary screen, cell-based; GALR2-expressing cells, agonist activation read-out; activation, %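 (tested at 5 µM)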; 140,000 tested, 0.48% active; AID 803, 2007;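 active = above mean plus 3 SD of all compounds, about 5% in these data, not always enough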;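 also: 0% = vehicle buffer wells and 100% = reference agonist at full effect; tested in CHO reporter cells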
INS promoter inh cell count – second read-out of INS promoter inh, no call of its own (marks repeat the call); normalized cell count, %; measured here: cell count, toxicity; reference of the scale not given here;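 cells exposed to compound for 48 h; stained nuclei by imaging scaled within each plate; lower means fewer cells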
HSV augment primary fold – second read-out of HSV augment, no call of its own (marks repeat the call); fold increase; compound at 10 µM; measured here: primary screen fold increase 10 uM; tested in PC3 cells;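 GFP signal in the first replicate; 1 = infected wells without compound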
Active calls of the source: *; i = inactive; . = no result given; [ ] = another dose, or the depositor's remark. Hits appear at their usual frequency; any-hit rate near 1.3%.

Every second line gives: INS promoter inh | RGS16-Gao | INS promoter inh cell count | PKD1 kinase inh | HSV augment | HSV augment primary fold | GALR2 agonist
COC(c1ccccc1)c1nnc(CCC(=O)N2CCCCCCC2)o1 (configuration not stated)
 : . | 105 | . | 2 | i | 0.97 | .
CCOC(=O)C1CCN(Cc2oc(CO)cc(=O)c2O)CC1
 : -15 | 121 | 113 | 9 | . | . | -3.5
CCOC(=O)NN1C(=O)c2ccccc2NC1c1ccccc1F (configuration not stated)
 : -5 | 101 | 173 | 1 | i | 0.94 | .
COc1ccc(S(=O)(=O)N(C)CC(=O)Nc2ccccc2C(F)(F)F)cc1OC
 : 23 | 92 | 52 | 8 | i | 0.93 | -0.7
Cc1ccccc1Nc1nc(N)nc(CSCc2c(C)noc2C)n1
 : -109 | 102 | 66 | 1 | i | 0.98 | -2.5
O=C(/C=C/c1ccc(Cl)cc1)N(Cc1cccs1)C1CCS(=O)(=O)C1 (configuration not stated)
 : . | 79 | . | . | i | 0.91 | .
Cc1[nH][nH]c(=O)c1C(c1ccccc1[N+](=O)[O-])C(C#N)C#N (configuration not stated)
 : . | 100 | . | 5 | i | 1 | .
Cc1cc(C(=O)OCC(=O)Nc2ccc(S(=O)(=O)N3CCOCC3)cc2)c(C)o1
 : 3 | 79 | 123 | -12 | i | 0.99 | -1.4
C#CCn1cc(/C=N/Nc2nc3ccccc3[nH]2)c2ccccc21
 : -47 | 139 | 93 | 4 | i | 0.5 | 0.8
CC(C)CCNC(=O)NC(=O)COC(=O)CNC(=O)C1CCCCC1
 : . | 99 | . | -2 | i | 1 | .
CCOC(=O)c1cc(C(=O)c2cc(Br)ccc2O)coc1=N
 : 43 | 102 | 93 | -2 | i | 0.81 | .
O=c1cc(CSc2ccccc2)nc(-c2ccccc2)[nH]1
 : -31 | 102 | 70 | -5 | i | 1 | .
CCN(CC)CCOC(=O)c1ccc(NC(=O)/C=C/c2cccs2)cc1
 : 8 | 109 | 73 | -13 | i | 0.92 | 1.1
S=C(c1ccccc1)N1CCN(C(=S)c2ccccc2)CC1
 : 11 | 109 | 100 | 7 | i | 0.85 | -0.3
C=CCNCC(=O)NN=C(c1ccccc1)c1ccccc1
 : -3 | 101 | 94 | 1 | i | 0.98 | -2.5
CCCN(Cc1ccccc1)C(=S)Nc1ccc(C(C)=O)cc1
 : -33 | 104 | 77 | -1 | i | 0.89 | .
COc1ccc2cc(C3(C)NC(=O)NC3=O)ccc2c1 (configuration not stated)
 : . | 93 | . | -8 | i | 1.1 | -1.4
COC(=O)CCC(=O)N1CCCC(CNS(=O)(=O)c2ccc(OC)cc2)C1 (configuration not stated)
 : . | 121 | . | -1 | i | 0.97 | .
Cc1occc1C(=O)NNC(=O)c1ccccc1C(=O)O
 : . | 96 | . | -1 | i | 1 | .
CC1C2=C(CC(C)(C)CC2=O)NC2=C1C(=O)CC(C)(C)C2
 : 5 | 68 | 76 | -3 | i | 0.97 | .

Another view of part of the listing above:
Molecule,INS promoter inh,RGS16-Gao,INS promoter inh cell count,PKD1 kinase inh,HSV augment,HSV augment primary fold,GALR2 agonist
S=C(c1ccccc1)N1CCN(C(=S)c2ccccc2)CC1,11,109,100,7,i,0.85,-0.3
C=CCNCC(=O)NN=C(c1ccccc1)c1ccccc1,-3,101,94,1,i,0.98,-2.5
CCCN(Cc1ccccc1)C(=S)Nc1ccc(C(C)=O)cc1,-33,104,77,-1,i,0.89,.
COc1ccc2cc(C3(C)NC(=O)NC3=O)ccc2c1 (configuration not stated),.,93,.,-8,i,1.1,-1.4
COC(=O)CCC(=O)N1CCCC(CNS(=O)(=O)c2ccc(OC)cc2)C1 (configuration not stated),.,121,.,-1,i,0.97,.
Cc1occc1C(=O)NNC(=O)c1ccccc1C(=O)O,.,96,.,-1,i,1,.
CC1C2=C(CC(C)(C)CC2=O)NC2=C1C(=O)CC(C)(C)C2,5,68,76,-3,i,0.97,.

Carrying on.
Every second line gives: INS promoter inh | RGS16-Gao | INS promoter inh cell count | PKD1 kinase inh | HSV augment | HSV augment primary fold | GALR2 agonist
COc1ccc(Cl)cc1-c1nc(N)nc(NC2CCCCC2)n1
 : -15 | 109 | 78 | -5 | i | 0.9 | -0.7
COC(=O)c1ccccc1N=Nc1c(C)[nH][nH]c1=O
 : . | 125 | . | . | i | 1.1 | .
C=CCN(CC=C)S(=O)(=O)c1ccc(F)cc1
 : -34 | 91 | 163 | -5 | i | 1.2 | -0.4
O=C1NCCN1C(=O)c1ccco1
 : . | 106 | . | 7 | i | 1 | -2.2
COc1cc(C(=O)O)nc(OC)n1
 : 25 | 103 | 108 | 5 | i | 1 | .
CCn1c(COc2cccc(C)c2C)nnc1SCC(=O)N1CCN(c2ccc(OC)cc2)CC1
 : -18 | 97 | 93 | 9 | i | 0.83 | 0.1
COC(=O)c1cc(NC(=O)c2cc(C(C)(C)C)nn2Cc2ccc(F)cc2)ccc1N1CCOCC1
 : . | 100 | . | . | i | 0.9 | .
CCOCCCNC(=S)NCCCNc1nc2cc3c(cc2cc1C#N)OCO3
 : 0 | 97 | 100 | -4 | i | 0.88 | 1.6
COc1ccc(Oc2nc(C)cc(C)c2S(C)(=O)=O)cc1
 : . | 101 | . | -2 | . | . | -2.8
Cc1cccc(-c2n[nH]c(=S)n2C)c1
 : 42 | 190 | 82 | -5 | i | 0.89 | .
Cc1cccc(NC(=O)CCC(=O)N/N=C/c2ccncc2)c1
 : . | 102 | . | -10 | i | 1 | -0.7
O=C(CCl)Nc1cc(S(=O)(=O)N2CCOCC2)ccc1N1CCOCC1
 : . | 96 | . | -3 | i | 1.1 | .
O=S(=O)(Nc1ccc2c(c1)OCCO2)c1ccc(Br)s1
 : -3 | 97 | 125 | 1 | i | 1.1 | -0.8
CC(Oc1ccc(Cl)cc1Cl)C(=O)Nc1ccc(S(=O)(=O)Nc2cnc3ccccc3n2)cc1 (configuration not stated)
 : 35 | 101 | 123 | -2 | i | 0.88 | -2.5
CCOC(=O)C1=NNC2(c3ccc(Cl)cc3)C(=O)N(c3cc(C)cc(C)c3)C(=O)C12 (configuration not stated)
 : -43 | 104 | 47 | -2 | i | 1.1 | -1.8
Cc1cc(C)n2c(SCC(=O)N(C)C3CCS(=O)(=O)C3)nnc2n1 (configuration not stated)
 : 12 | 97 | 114 | -2 | i | 0.95 | -3.0
COc1cc(NC(=O)c2ccc(S(=O)(=O)N(C)C)cc2)cc(OC)c1OC
 : 33 | 96 | 125 | 8 | i | 0.97 | -2.7
CC(=O)Nc1ccc2[nH]c3ccccc3c2c1
 : . | 110 | . | 0 | i | 1 | -3.5
C=CCNC(=O)c1cc2c(=O)c3ccccc3oc2nc1C
 : 20 | 107 | 101 | 3 | i | 0.97 | .
CC1(C)OC(=O)C(C(c2ccccc2)C(C#N)C(N)=O)=C(O)O1 (configuration not stated)
 : 25 | 116 | 108 | -8 | i | 0.94 | -1.2

Some of these compounds in order of heavy-atom count, smallest number first.
Every second line gives: INS promoter inh | RGS16-Gao | INS promoter inh cell count | PKD1 kinase inh | HSV augment | HSV augment primary fold | GALR2 agonist
CC(=O)Nc1ccc2[nH]c3ccccc3c2c1
 : . | 110 | . | 0 | i | 1 | -3.5
O=S(=O)(Nc1ccc2c(c1)OCCO2)c1ccc(Br)s1
 : -3 | 97 | 125 | 1 | i | 1.1 | -0.8
CC1(C)OC(=O)C(C(c2ccccc2)C(C#N)C(N)=O)=C(O)O1 (configuration not stated)
 : 25 | 116 | 108 | -8 | i | 0.94 | -1.2
CCOC(=O)C1=NNC2(c3ccc(Cl)cc3)C(=O)N(c3cc(C)cc(C)c3)C(=O)C12 (configuration not stated)
 : -43 | 104 | 47 | -2 | i | 1.1 | -1.8

The list goes on:
Every second line gives: INS promoter inh | RGS16-Gao | INS promoter inh cell count | PKD1 kinase inh | HSV augment | HSV augment primary fold | GALR2 agonist
O=C(Cn1cc2c(n1)CCCC2)NCCc1ccccc1
 : . | 101 | . | 3 | i | 1.1 | -0.8
CC(CCc1ccccc1)NC(=O)C1CCN(C(=O)c2sccc2-n2cccc2)CC1 (configuration not stated)
 : . | 110 | . | -4 | i | 0.88 | -2.9
CCOC(=O)N1CCN(C2=Nc3cccc4cccc2c34)CC1
 : . | 103 | . | 7 | i | 1.2 | 0.4
COC(=O)c1nc2n(n1)C(c1ccc(OC)c(OC)c1OC)C1=C(CCCC1=O)N2 (configuration not stated)
 : -18 | 99 | 79 | 0 | i | 0.93 | -1.6
Cc1cc(=O)oc2cc(OC(C)C(=O)NCC3CCCO3)ccc12 (configuration not stated)
 : . | 105 | . | 1 | i | 1 | .
COc1ccccc1CN1CCNC(=O)C1CC(=O)NCc1c(C)n[nH]c1C (configuration not stated)
 : -7 | 97 | 133 | 0 | i | 0.94 | .
Cc1ccc(Cl)c(OC(=O)c2nn(C(C)C)c(=O)c3ccccc23)c1
 : . | 248*[activator] | . | 3 | i | 0.98 | 0.2
CCc1ccc([C@@H]2C[C@H]3CN(Cc4ccccc4OC)C(=O)[C@]34CCCN24)cc1
 : . | 95 | . | -3 | i | 1 | .
O=C(O)c1c[nH]c2ccc(S(=O)(=O)N3CCOCC3)cc12
 : . | 100 | . | 13 | i | 1.1 | -3.4
CCC[C@@H]1C[C@@H](C(=O)N[C@@H](C2O[C@H](SC)[C@H](O)[C@@H](O)[C@H]2O)[C@H](C)Cl)N(C)C1 (some centres not stated)
 : 0 | 101 | 49 | -4 | i | 0.93 | .
O=C(COC(=O)c1ccc(-c2ccc([N+](=O)[O-])cc2)o1)NC(=O)NC1CCCCC1
 : . | 99 | . | 14 | i | 1.1 | 0.2
O=C(NCc1ccco1)C(=O)NCC1OCCN1S(=O)(=O)c1ccc(Cl)cc1 (configuration not stated)
 : -222 | 100 | 74 | 0 | i | 0.96 | -0.1
Cc1[nH]n(-c2ccc([N+](=O)[O-])cc2)c(=O)c1C=NCCc1ccc(S(N)(=O)=O)cc1
 : 25 | 92 | 136 | 5 | i | 0.98 | .
CC(=O)Nc1c(-c2ccccc2)nc2ncccn12
 : . | 96 | . | 4 | i | 0.87 | -2.3
N#CCCN(Cc1cccnc1)C(=O)Nc1ccc(Cl)c(Cl)c1
 : -8 | 99 | 82 | -4 | i | 0.88 | -1.7
CCn1c(NC(=O)C2CCCCC2)nc2ccccc21
 : -12 | 101 | 124 | -6 | i | 0.84 | 0.2
CCOC(=O)c1c(NC(=O)c2ccco2)n(C2CCCCC2)c2nc3ccccc3nc12
 : -41 | 94 | 117 | 4 | i | 0.98 | 1.6
CCOC(=O)C(CC)(CC)C(=O)/C=C/c1ccc(Br)cc1
 : 20 | 107 | 57 | -6 | i | 0.97 | -0.4
COc1ccccc1OCC(=O)N/N=C1\CCc2ccccc21
 : 10 | 106 | 130 | -11 | i | 0.89 | -0.7
CCSc1nnc(-c2cc(Br)ccc2N=Cc2c(C)[nH]n(-c3ccccc3)c2=O)c(=O)[nH]1
 : -356 | 98 | 62 | -11 | i | 0.91 | .
CCCC(=O)Nc1ccc(C(N)=O)cc1
 : . | 103 | . | 2 | i | 0.81 | .
O=C(NCc1ccc(F)cc1)c1ccc(CNc2c(N3CCOCC3)c(=O)c2=O)cc1
 : . | 92 | . | . | i | 1 | .
O=C(CN1C2=NCCN2c2ccccc21)c1ccc(Br)s1
 : -33 | 97 | 63 | -11 | i | 0.97 | -1.2
CSCC[C@@H](C(=O)NCc1cccs1)N1Cc2ccccc2C1=O
 : . | 103 | . | -6 | i | 1.1 | -1.0
C#CC(=O)N(c1cccc(OC)c1)C(C(=O)NC1CCCC1)c1cccs1 (configuration not stated)
 : . | 98 | . | 5 | i | 0.39 | -1.7
CC1OC(Oc2ccc3ccc(=O)oc3c2-c2c(O)ccc3cc(Oc4ccc5ccc(=O)oc5c4)c(=O)oc23)C(O)C(O)C1O (configuration not stated)
 : 0 | 98 | 86 | -2 | i | 1.1 | -1.4
CCS(=O)(=O)N1CCN(C(=O)COc2ccc(-c3ccccc3)cc2)CC1
 : -37 | 104 | 221 | 1 | i | 0.89 | -1.7
Cc1ccc(NC(=O)CCn2cccc2)cc1F
 : 21 | 103 | 132 | -1 | i | 0.93 | -1.6
COc1cccc(C(=O)NC(=S)Nc2ccc(N3CCCC3)cc2)c1
 : -42 | 97 | 101 | -9 | i | 0.91 | 0.3

Source: PubChem BioAssay (several laboratories)
